RecA intein inh: inhibitors of M. tuberculosis RecA intein splicing; P9WHJ3; cell-free RecA intein splicing, fluorescence; inhibition, %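 (about 9 µM by stock and volumes)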; 0.75% of 290,000 active; in the data active means inhibition above about 30%; inconclusive means no clear call, values can overlap the other calls;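 further: 0% = vehicle wells and 100% = reference inhibitor control wells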
Target sequence (P9WHJ3 whole entry, looked up): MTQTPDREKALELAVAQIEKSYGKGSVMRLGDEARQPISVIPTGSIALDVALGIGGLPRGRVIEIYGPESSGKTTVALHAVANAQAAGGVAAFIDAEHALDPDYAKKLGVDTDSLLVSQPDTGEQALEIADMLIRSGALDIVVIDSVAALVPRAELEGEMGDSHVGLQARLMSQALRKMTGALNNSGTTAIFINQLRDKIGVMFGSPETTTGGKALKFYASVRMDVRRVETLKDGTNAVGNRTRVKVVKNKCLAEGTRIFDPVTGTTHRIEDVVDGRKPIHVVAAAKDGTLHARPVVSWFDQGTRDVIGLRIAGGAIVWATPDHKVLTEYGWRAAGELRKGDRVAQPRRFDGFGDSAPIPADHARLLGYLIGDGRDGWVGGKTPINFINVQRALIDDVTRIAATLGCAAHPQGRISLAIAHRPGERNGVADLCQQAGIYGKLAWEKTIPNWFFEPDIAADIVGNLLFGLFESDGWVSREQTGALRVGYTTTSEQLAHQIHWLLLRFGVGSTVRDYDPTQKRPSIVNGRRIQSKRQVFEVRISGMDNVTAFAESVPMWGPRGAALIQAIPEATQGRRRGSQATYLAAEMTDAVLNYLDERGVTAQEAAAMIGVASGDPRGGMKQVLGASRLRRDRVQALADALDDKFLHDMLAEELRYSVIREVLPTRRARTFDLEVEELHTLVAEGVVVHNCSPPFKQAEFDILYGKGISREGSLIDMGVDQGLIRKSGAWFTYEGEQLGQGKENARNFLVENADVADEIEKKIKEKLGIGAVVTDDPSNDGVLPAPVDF
Arbovirus inh: arbovirus infection inhibition; arbovirus infection cell-based antiviral screen; inhibition, % at 10 µM; 0.37% of 200,000 active; AID 1251;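 active means inhibition from about 30%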;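 further: bluetongue infection of BSR cells; cell survival read as ATP light after 72 h; 0% = infected wells without compound and 100% = uninfected wells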
Mtb betalactam: beta-lactam sensitization of Mtb H37Rv; M. tuberculosis H37Rv growth with meropenem, percent inhibition; hits of this screen are not shown here; inhibition, % at 25 µM; 0.27% of 330,000 active;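 active means about 74% or more and at least 40 points above the plate without the antibiotic, then above 30% in a dose series; inconclusive means first-round hits that could not be retested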;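 further: growth measured after seven days incubation then overnight dye step; 0% = bacteria only wells and 100% = bacteria with antibiotic; twin plates without the antibiotic show which effects depend on it; some results filed as inactive read as strong as hits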
Mtb H37Rv: M. tuberculosis H37Rv growth inhibitors, H37Rv strain (AID 1626); inhibition, % at 10 µM; hits with a dose series show IC50 in µM; M. tuberculosis H37Rv growth inhibition; higher % means a stronger effect; 0.95% of 220,000 active;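 active means confirmed in a dose series; inconclusive means inhibition above 80% but not taken into the dose series; inactive means below 80% or under 30% at every dose of the series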;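 further: bacteria incubated seven days before Alamar blue readout; 0% = bacteria only wells and 100% = bacteria with antibiotic wells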
YopH inh: YopH (Yersinia) phosphatase inhibition | fluorescence Ex485/Em525 | inhibition, %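 (about 10 µM by stock and volumes)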 | 0.16% of 140,000 active | AID 898;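 active means inhibition of 50% or more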;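 further: controls were vehicle for no effect and minimum signal wells for full effect; inactives centre near -20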
Arbovirus inh repeat: recorded beside Arbovirus inh, whose call it bears; inhibition, %; measured here: 10K subset replicate screen; many hits read low in the repeat;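 first of two repeat runs on a subset; 0% = infected and 100% = uninfected wells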
Active calls of the source: *; ? = inconclusive; · = no result given; & = joins results of further samples. A portion of the library (hit frequency here may not be typical).

SMILES | RecA intein inh | Arbovirus inh | Mtb betalactam | Mtb H37Rv | YopH inh | others
Cc1onc(-c2ccccc2)c1NC(=O)N(CCC#N)Cc1cccs1 | 0.9 | · | -5 | -1% | ·
Cc1sc(NC(=O)Cn2cnnn2)nc1-c1ccc(Cl)cc1 | 0.3 | 18 | 53 | 38% | ·
O=C(Nc1ccc2c3c(cccc13)CC2)c1ccco1 | 5.0 | 13 | 90 | -4% | -12
Cc1ccc2c(COC(=O)C34CC5CC(CC(C5)C3)C4)cc(=O)oc2c1 | -0.7 | 4 | 10 | 0% | -30
NC(=O)c1ccsc1NC(=O)C1CCN(S(=O)(=O)c2cccs2)CC1 | 1.4 | · | 1 | · | ·
CN(C)S(=O)(=O)c1ccc(N2CCOCC2)nc1 | -0.8 | -5 | -3 | 1% | -23
COc1cc(CNC(=O)CCC(=O)N2C[C@H]3C[C@H](C2)c2cccc(=O)n2C3)cc(OC)c1OC | 0.4 | · | -5 | · | ·
C=C1CCC[C@]2(C)C[C@H]3OC(=O)C(CN4CC(C)OC(C)C4)[C@H]3C[C@@H]12 (stereo partly specified) | 1.7 | · | 4 | · | ·
O=C(CNC(=O)C12CC3CC(CC(C3)C1)C2)OCC(=O)N1CCCCC1 | -0.6 | · | -5 | · | ·
Cc1ccccc1-n1nc(C(=O)c2cccs2)cc(-c2nc3ccccc3[nH]2)c1=N | 4.3 | -1 | 32 | 3% | 17
COc1ccc(O)c(CNn2c(-c3ccc(Br)cc3)nc3ccccc3c2=O)c1 | 0.0 | 6 | 4 | · | ·
CCn1nnnc1SCC(=O)N1CCc2ccccc21 | 0.9 | 5 | -9 | -8% | -13
CCOc1ccc(NC(c2ccccc2)P(=O)(OC)OC)cc1 (stereo unspecified) | -3.1 | · | 55 | · | ·
CN(C)CCCN1c2ccccc2Sc2ccc(Cl)cc21 | -3.3&-0.2 | -44&-42 | 59&-4 | 1%&6% | -14&1
CCc1nc2ccccc2n1Cc1ccccc1OC | 8.5 | 8 | 50 | 6% | -32
Cc1[nH]nc2c1C(c1cccs1)C1=C(CCCC1=O)N2 (stereo unspecified) | -1.0 | 3 | -10 | -1% | ·
CC(=O)Oc1ccc2c(=O)c(N3C(=O)c4ccccc4C3=O)c(C)oc2c1 | 1.0 | 7 | -4 | -4% | -26
COc1ccc(Br)cc1/C=C/C(=O)Nc1ccc(C)cc1 | 0.4 | 27 | 3 | 29% | -20
CCc1ncc(CN2CCCCC2C(=O)Nc2ccc(Oc3ccccc3)nc2)cn1 (stereo unspecified) | 2.0 | · | -5 | · | ·
O=C(Nc1ccccc1N1CCCCC1)c1cnccn1 | 8.4 | 10 | 6 | 17% | ·
COc1cccc(N(CC(=O)NC2CC3CCC2C3)S(=O)(=O)c2ccccc2)c1 (stereo unspecified) | 1.0 | · | 1 | · | ·
Cc1ccc(S(=O)(=O)Nc2cccc(N(C)S(C)(=O)=O)c2)cc1[N+](=O)[O-] | -1.9 | 5 | 2 | -16% | ·
S=c1nc(-c2ccccc2)[nH]c2ccccc12 | -2.1 | 15 | 72 | ? | ·
Cc1ccc(C(=O)Nc2nnc(C)s2)cc1 | 1.5 | 5 | 1 | -1% | ·
Cc1ccc(NC(=O)C(NC2CCCc3ccccc32)c2ccccc2)cc1Cl (stereo unspecified) | 9.8 | 6 | 8 | 3% | -15

Five compounds already listed, sorted by heavy-atom count, rising:
SMILES | RecA intein inh | Arbovirus inh | Mtb betalactam | Mtb H37Rv | YopH inh | others
Cc1ccc(C(=O)Nc2nnc(C)s2)cc1 | 1.5 | 5 | 1 | -1% | ·
O=C(Nc1ccccc1N1CCCCC1)c1cnccn1 | 8.4 | 10 | 6 | 17% | ·
Cc1sc(NC(=O)Cn2cnnn2)nc1-c1ccc(Cl)cc1 | 0.3 | 18 | 53 | 38% | ·
Cc1ccc(S(=O)(=O)Nc2cccc(N(C)S(C)(=O)=O)c2)cc1[N+](=O)[O-] | -1.9 | 5 | 2 | -16% | ·
Cc1ccc(NC(=O)C(NC2CCCc3ccccc32)c2ccccc2)cc1Cl (stereo unspecified) | 9.8 | 6 | 8 | 3% | -15

Additional entries.
SMILES | RecA intein inh | Arbovirus inh | Mtb betalactam | Mtb H37Rv | YopH inh | others
N#CCCN1CCN(S(=O)(=O)c2ccc(S(=O)(=O)NCC3CCCO3)cc2)CC1 (stereo unspecified) | -0.6 | 8 | -1 | -3% | -14 | Arbovirus inh repeat=6
CCOP(=O)(OCC)C(NC(=O)Nc1ccc(Cl)cc1)c1ccccc1 (stereo unspecified) | -0.6 | 5 | 4 | 11% | -12
COc1ccc(NS(=O)(=O)c2cc3c4c(c2)CCN4C(=O)CC3)cc1OC | -1.1 | · | -3 | · | ·
CC1CCCC(NC(=O)c2cccc(N3CCCC3=O)c2)C1C (stereo unspecified) | 0.2 | 15 | 4 | 18% | ·
CCCn1c(=O)c(C(=O)Nc2cc(C)ccn2)c(O)c2ccccc21 | -1.9 | · | 4 | · | ·
COc1cccc(OC)c1OCCCOc1cccc2cccnc12 | 3.2 | -1 | -1 | 4% | ·
Cn1c(=O)c2[nH]c(N3CCN(c4ccccn4)CC3)nc2n(C)c1=O | · | 3 | 1 | 0% | ·
Cc1[nH]c2ccccc2c1C(=O)CSc1ncn[nH]1 | -2.1 | 6 | 5 | -8% | -6
CCc1cc(C(=O)Nc2ccc(C)cc2Br)cs1 | 1.9 | 7 | 99 | -7% | -10
CN(Cc1ccon1)C(=O)CCc1nnc(Cc2ccc(-c3ccccc3)cc2)o1 | 6.3 | -2 | -14 | 3% | ·
COc1ccc(CC(=O)N/N=C/c2ccc(Cl)s2)cc1OC | -0.7 | · | 2 | · | ·
O=C(CSc1nnc2nnc3ccccc3n12)N1CCOCC1 | 11 | · | -10 | · | ·
CN(C)S(=O)(=O)N1CCC(Cc2ccccc2)CC1 | 1.8 | 3 | -4 | -8% | -18 | Arbovirus inh repeat=-2
O=C(NCCN1CCN(C(=O)c2ccc(F)cc2)CC1)c1ccc(F)cc1 | -1.1 | · | -6 | · | ·
Cc1c(C(=O)NCc2ccc3c(c2)OCO3)oc2ccc(S(=O)(=O)N3CCCCC3)cc12 | -1.0 | -4 | -10 | 1% | -40
CN(C)/C=N/c1nc2ccc3c(c2s1)CCCC3 | -0.2 | · | 6 | -7% | -16
O=C(Nc1ccccc1F)C(c1ccccc1)c1ccccc1 | 1.0 | · | -13 | · | ·
COc1cc(C(N)=O)cc(Cl)c1OC | 0.4 | 4 | -5 | 6% | ·
O=c1onc(-c2cccnc2)n1-c1ccccc1F | -3.0 | · | -5 | -9% | ·
COC(=O)c1sccc1NC(=O)COc1ccc(Cl)cc1 | 1.7 | -9 | 1 | 4% | -24
COc1ccc(C(=O)N/N=C/c2ccc(OC)c(COc3c(F)c(F)cc(F)c3F)c2)cc1 | 0.3 | · | -6 | · | ·
O=[N+]([O-])c1ccc(N2CCCCC2)c(-c2nn[nH]n2)c1 | -1.1 | 15 | 0 | -9% | ·
CCOc1ccc(NC(=O)CCc2nnc3ccc(N4CCC(C)CC4)nn23)cc1 | -1.9 | · | 100 | · | ·
CCC(=O)OCCn1c(=O)c2ccccc2c2ccccc2c1=O | 5.5 | 4 | -3 | 3% | ·
COc1cccc(N2C(=O)CC(N3CCN(c4ccc([N+](=O)[O-])cc4)CC3)C2=O)c1 (stereo unspecified) | -2.5 | · | -1 | · | ·

Following part.
SMILES | RecA intein inh | Arbovirus inh | Mtb betalactam | Mtb H37Rv | YopH inh | others
C/C(=N\NC(=S)Nc1cc(S(=O)(=O)N2CCOCC2)ccc1Cl)c1ccccc1F | 28 | -31 | 6 | -3% | 4
COc1ccc(/C=N/Nc2ccc(C(=O)O)cc2)cc1Br | -6.7 | 13 | 18 | -10% | ·
c1ccc(N2CCN(c3ccccc3)C2c2ccncc2)cc1 | 3.4 | -3 | -4 | 12% | -32
Cc1occc1-c1nnc(SCC(=O)Nc2ccccn2)o1 | 2.2 | -6 | 58 | 10% | ·
COCCn1cc(C(=O)N2CCC3(CC2)OCCO3)c2c3ccccc3n(C)c2c1=O | · | 3 | -1 | -9% | -36
CC(C)c1ccc(NC(=O)CSc2nc3c(c(=O)[nH]2)CCC3)cc1 | · | 2 | · | -5% | -28
COc1ccc(-n2c(SCC(=O)N/N=C/c3ccccc3OCC(=O)O)nc3ccccc3c2=O)cc1 | -1.3 | · | 1 | -4% | ·
CCn1c(N2CCN(C(=S)Nc3ccc(OC)cc3)CC2)nc2ccccc21 | 2.6 | -10 | -3 | 3% | ·
CCCC[C@H]1COCCS(=O)(=O)N1Cc1cccc(F)c1 | 1.5 | · | 8 | · | ·
CCC(Sc1nc(-c2cccc(OC)c2)c(C#N)c(=O)[nH]1)C(=O)Nc1nnc(C(C)C)s1 (stereo unspecified) | 2.8 | 4 | -5 | 3% | ·
O=C1CN(C(=O)COc2ccc(F)cc2Br)c2ccccc2N1 | 3.9 | -5 | -1 | 5% | ·
CC(=O)NCCC(=O)N(Cc1ccccc1)c1nc2c(C)cccc2s1 | -0.6 | · | 16 | · | ·
COc1cc(NC(=S)NCCN2CCOCC2)cc(OC)c1OC | -0.2 | 7 | -4 | 6% | ·
Cc1c(NC(=O)c2cccc(F)c2)c(=O)n(-c2ccccc2)n1C | -0.2 | 11 | -5 | -6% | 5
O=C(NC(=S)N1CCCC1)c1ccccc1Cl | 0.1 | · | -5 | · | ·
COc1ccc(N2C(=O)C3CCCN3C2c2ccccc2)cc1 (stereo unspecified) | 0.9 | 1 | -3 | -2% | -55 | Arbovirus inh repeat=-3
Cn1nc(OC(=O)Nc2cccc(Cl)c2)cc1C(F)(F)F | -1.6 | 20 | 8 | -3% | -7
S=C(NCCc1ccccc1)N/N=C/c1cccc(Cl)c1Cl | -2.1 | 9 | 0 | -8% | -29
O=C(O)c1ccc2c3c(cccc13)C(=O)N(c1cccc3ccccc13)C2=O | 2.2 | -4 | 1 | -6% | ·
CCCCNC(=O)CCSc1nc2nc(C)cc(C)n2n1 | -0.5 | 10 | -8 | -4% | -37
CC(=O)Nc1nnc(SCC(=O)N2CCN(Cc3ccccc3)CC2)s1 | 1.4 | 8 | -2 | 3% | -6
CN(Cc1nc2ccccc2[nH]1)C(=O)C1CCC(=O)N(CCc2cccc(F)c2)C1 (stereo unspecified) | -3.1 | · | 1 | · | ·
CCOc1cc(CNc2ccc(Br)cc2)cc(Br)c1OCC(=O)NC(C)(C)C | 5.3 | -37 | 3 | 13% | 13
CS(=O)(=O)N(CC(=O)N1CCCC1)c1cccc(Cl)c1Cl | 1.0 | 3 | 2 | 1% | -36
COc1ccc(-n2nc(C(=O)NCC(=O)N3CCN(Cc4ccccc4)CC3)c3ccccc3c2=O)c(OC)c1 | 3.3 | · | 10 | · | ·

Next part
SMILES | RecA intein inh | Arbovirus inh | Mtb betalactam | Mtb H37Rv | YopH inh | others
O=C(/C=C/c1ccco1)c1ccccc1O | 3.4 | -5 | 0 | 4% | ·
Cc1ccc(SCCNC(=O)/C=C/c2cccc([N+](=O)[O-])c2)cc1 | 4.5 | -12 | 1 | 8% | -23
CCOCCCNC(=O)CSc1nnc(-c2ccc(S(=O)(=O)N3CCCC3)cc2)n1C | -0.9 | · | -6 | · | ·
Cc1ccc(C2OCC3(CO2)COC(c2ccc(C)cc2)OC3)cc1 (stereo unspecified) | -1.7 | 6 | -1 | 2% | -30
Cc1ccc(C(=O)N/C(=C\c2ccc(-c3ccc([N+](=O)[O-])cc3)o2)C(=O)NC2CCS(=O)(=O)C2)cc1 (stereo unspecified) | -4.3 | -3 | 5 | -5% | -13
Cc1ccc2nc(Cl)c3cc(C(=O)N(CCN(C)C)Cc4ccco4)sc3c2c1 | 2.6 | -27 | 70 | 77% | ·
O=C(COc1ccc2ccccc2c1)N1CCN(Cc2c[nH]c3ccccc23)CC1 | 4.6 | 15 | -2 | 6% | -23
N/C(=N\OC(=O)CC1CCCCC1)c1ccc(Br)cc1 | -1.0 | · | -4 | · | ·
COc1ccc(NC(=O)CSc2nnc3ccc(-c4cccnc4)nn23)cc1OC | -3.5 | · | 3 | · | ·
Cc1ccc(CC(=O)Nc2ccc(OC(F)F)c(Cl)c2)cc1C | 0.6 | 18 | -5 | 6% | 8
Cc1cccc(Nc2nc(NCC3CCCO3)nc(N)c2[N+](=O)[O-])c1 (stereo unspecified) | 0.9 | -6 | -1 | 6% | -20
C=CCNc1nnc(SCC(=O)Nc2ccccc2OC)c2ccccc12 | -0.2 | · | 1 | · | ·
Cc1c(C)n(O)c2ccc3nonc3c12 | 56* | · | -2 | -2% | ·
N#C/C(=C/c1ccco1)c1nc2ccccc2s1 | 9.8 | 2 | -2 | -2% | 1
O=c1cc(CN2CCN(Cc3ccccc3)CC2)c2cc3c(cc2o1)CCC3 | 2.5 | · | 89 | 6% | ·
COc1cccc(-c2nc3c(c(SCC(=O)N4CCOCC4)n2)Cc2c(CO)cnc(C)c2O3)c1 | -1.9 | · | 3 | · | ·
CCCN(C(=O)Cn1c(C(F)(F)F)nc2ccccc21)C1CCS(=O)(=O)C1 (stereo unspecified) | -1.0 | · | -7 | · | ·
